# Screens as filed in PubChem BioAssay.
# Mtb growth: M. tuberculosis H37Rv growth inhibitors, H37Rv strain (AID 1626) | 220,000 compounds, 0.95% hits | M. tuberculosis H37Rv growth inhibition; higher % means a stronger effect | one-dose inhibition, % at 10 µM; IC50 in µM for titrated hits;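 active means confirmed in a dose series; inconclusive means inhibition above 80% but not taken into the dose series; inactive means below 80% or under 30% at every dose of the series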;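 further: bacteria incubated seven days before Alamar blue readout; 0% = bacteria only wells and 100% = bacteria with antibiotic wells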
# YopH PTP inh: inhibitors of Yersinia enterocolitica YopH tyrosine phosphatase; fluorescence Ex485/Em525; inhibition, %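 (about 10 µM by stock and volumes)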; 140,000 compounds, 0.16% hits;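 active means inhibition of 50% or more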;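 further: controls were vehicle for no effect and minimum signal wells for full effect; inactives centre near -20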
# Arbovirus inh: antivirals against arbovirus infection; AID 1251; 200,000 compounds, 0.37% hits; arbovirus infection cell-based antiviral screen; inhibition, % at 10 µM;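 active means inhibition from about 30%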;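 further: bluetongue infection of BSR cells; cell survival read as ATP light after 72 h; 0% = infected wells without compound and 100% = uninfected wells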
# Mtb bLac sens: beta-lactam sensitization of Mtb H37Rv; inhibition, % at 25 µM; AID 434955; 330,000 compounds, 0.27% hits; M. tuberculosis H37Rv growth with meropenem, percent inhibition; hits of this screen are not shown here;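 active means about 74% or more and at least 40 points above the plate without the antibiotic, then above 30% in a dose series; inconclusive means first-round hits that could not be retested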;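 further: growth measured after seven days incubation then overnight dye step; 0% = bacteria only wells and 100% = bacteria with antibiotic; twin plates without the antibiotic show which effects depend on it; some results filed as inactive read as strong as hits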
# RecA splice inh: blocks M. tuberculosis RecA intein splicing | P9WHJ3 | cell-free RecA intein splicing, fluorescence | 290,000 compounds, 0.75% hits | inhibition, %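 (about 9 µM by stock and volumes)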 | AID 2221; in the data active means inhibition above about 30%; inconclusive means no clear call, values can overlap the other calls;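 further: 0% = vehicle wells and 100% = reference inhibitor control wells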
# Target sequence (P9WHJ3 whole entry, looked up, canonical isoform): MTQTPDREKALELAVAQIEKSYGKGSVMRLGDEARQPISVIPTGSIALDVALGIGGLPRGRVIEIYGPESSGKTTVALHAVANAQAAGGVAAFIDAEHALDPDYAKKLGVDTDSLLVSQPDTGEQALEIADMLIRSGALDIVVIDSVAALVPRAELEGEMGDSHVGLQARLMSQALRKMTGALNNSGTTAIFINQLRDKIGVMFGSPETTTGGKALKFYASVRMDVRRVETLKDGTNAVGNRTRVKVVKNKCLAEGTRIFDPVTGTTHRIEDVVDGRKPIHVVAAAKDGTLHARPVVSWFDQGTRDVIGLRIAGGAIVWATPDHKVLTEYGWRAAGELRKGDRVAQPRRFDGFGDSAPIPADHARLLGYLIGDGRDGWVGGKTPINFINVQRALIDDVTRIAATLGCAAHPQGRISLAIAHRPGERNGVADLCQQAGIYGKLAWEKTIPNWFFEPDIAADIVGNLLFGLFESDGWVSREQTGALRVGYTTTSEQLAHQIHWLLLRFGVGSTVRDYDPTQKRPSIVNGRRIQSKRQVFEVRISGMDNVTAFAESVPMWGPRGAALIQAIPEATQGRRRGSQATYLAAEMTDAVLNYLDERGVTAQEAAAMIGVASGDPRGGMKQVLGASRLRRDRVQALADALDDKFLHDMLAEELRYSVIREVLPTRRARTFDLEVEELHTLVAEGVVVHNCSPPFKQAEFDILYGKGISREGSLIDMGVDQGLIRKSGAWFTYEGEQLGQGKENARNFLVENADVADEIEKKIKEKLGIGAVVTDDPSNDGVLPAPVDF
# Arbovirus inh repeat: second read-out of Arbovirus inh, no call of its own (marks repeat the call); inhibition, %; measured here: 10K subset replicate screen; many hits read low in the repeat;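 first of two repeat runs on a subset; 0% = infected and 100% = uninfected wells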
# * hit, by the source's call; ? = inconclusive; . = no result given. A portion of the library, so the mix of outcomes need not match the whole.
SMILES,Mtb growth,YopH PTP inh,Arbovirus inh,Mtb bLac sens,RecA splice inh,others
O=C(NC(=S)Nc1ccccc1N1CCCCC1)c1ccc(-c2cccc([N+](=O)[O-])c2)o1,5%,-18,-1,14,-0.9,
COc1ccc(CCc2nnc(CCC(=O)NCc3cc(C(C)C)no3)o2)cc1,-2%,.,4,-5,-2.1,
O=C(CSCC(=O)NC1CC1)Nc1ccc2ccccc2c1,5.4µM*,14,1,.,-4.0,
CCOC(=O)CC1C(=O)NCCN1S(=O)(=O)c1cccc(C(F)(F)F)c1 (stereo unspecified),.,.,.,1,-0.5,
COc1ccc(OC)c(Nc2nnc(C)c(=O)[nH]2)c1,-1%,.,5,0,0.4,
CCOC(=O)c1cc2sccc2n1CC(=O)OC(C)C,2%,-51,-8,1,-0.5,
O=C(CCS(=O)(=O)c1ccc(Br)cc1)Nc1ccc(Cl)cc1F,-7%,-35,4,-3,-5.2,
CCCCCC(=O)NC(=S)NNC(=O)CC,-8%,-38,4,-3,6.3,
CCC1(CC)NC(=O)N(CC(=O)Nc2sc3c(c2C(N)=O)CCC3)C1=O,-12%,-20,5,1,-1.0,
N#Cc1c(N)n(Cc2ccccc2)c(=O)c2cc([N+](=O)[O-])ccc12,.,.,.,-3,-18,
O=C1NC(=S)N(c2ccc(Cl)cc2)C(=O)/C1=C/N1CCN(C(=O)c2ccco2)CC1,-10%,-39,0,6,-2.1,
COCCn1c(CN(C)Cc2ccccc2)nc2c1c(=O)n(C)c(=O)n2C,8%,-34,12,6,-4.4,Arbovirus inh repeat=5
CC(C)(C)C1CCC2(CC1)CC(=O)c1ccccc1O2 (stereo unspecified),-4%,.,.,0,4.0,
O=C1c2nc3cc(-c4ccco4)[nH]n3c(=O)c2CN1Cc1ccccc1,-8%,.,.,-2,-1.0,
CN(CCCN1c2ccccc2CCc2ccccc21)CC(=O)c1ccc(Cl)cc1,-8%,.,.,66,2.7,
CC(C)(C)SCCNC(=O)CN(c1ccc(F)cc1)S(=O)(=O)c1ccccc1,-1%,.,-7,-4,.,
O=C(NN=C(Cc1ccccc1)Cc1ccccc1)c1ccncc1,?,.,.,99,1.4,
Nc1c2c3c(sc2nc(=O)n1N)CCCC3,-7%,.,-2,11,.,
COC(=O)c1cc(C(C)=O)c(C)[nH]c1=O,-4%,.,16,-1,0.3,
CCOC(=O)c1c(-c2cccs2)csc1N,.,.,-19,2,18,
N#Cc1c(Oc2ccc3ccccc3c2)sc(C(=O)c2ccccc2)c1N,3%,-24,12,-7,-1.3,
CN(C)S(=O)(=O)N1CCN(CC(=O)Nc2cc(Cl)ccc2Cl)CC1,8%,-28,12,-6,2.4,
CNC(=S)N(Cc1ccco1)Cc1cc2cc(OC)c(OC)cc2[nH]c1=O,-6%,.,4,-6,0.7,
CC(=O)OC(C)(C)/C=C/C(=O)C(C)(O)C1[C@H](O)C[C@@]2(C)C3CC=C4C(CC[C@@H](O)C4(C)C)[C@]3(CO)C(=O)C[C@]12C (stereo partly specified),.,.,.,-18,1.4,
CC(Nc1cccc2ccccc12)C(=O)N/N=C/c1ccccn1 (stereo unspecified),3%,-2,-30,32,4.4,
O=C(O)c1[nH]nc2c1COc1ccccc1-2,-4%,-41,6,-5,-0.7,
CN1CCN(c2nc3c(c(=O)[nH]2)CCC3)CC1,.,.,.,-2,-0.4,
Cc1ccc(S(=O)(=O)N(C)C)cc1NC(=S)N(C)C1CCN(C)CC1,.,.,.,6,-2.4,
CCCCCCSc1cccc(-c2nc3cc(C)ccn3c2NCc2ccccc2)c1,.,.,.,-2,8.7,
COc1cc(S(=O)(=O)N2CCN(C(=O)c3ccco3)CC2)ccc1Cl,.,.,.,3,-3.2,
CC(=O)C1=C(O)C(=O)N(CO)C1c1ccccc1F (stereo unspecified),-5%,-10,-2,-1,1.9,
Cc1c(NC(=O)Nc2ccc(F)cc2F)c(=O)n(-c2ccccc2)n1C,.,.,.,8,1.6,
CN(C)CC1Oc2ccccc2OC1(O)c1ccccc1 (stereo unspecified),64%,.,.,.,2.8,
CC(C)(C)NC(=O)C(OC(=O)c1cccs1)c1ccc(C#N)cc1 (stereo unspecified),6%,.,-2,-3,0.2,
CCOc1ccc(NC(=O)N2CCN(Cc3ccc4c(c3)OCO4)CC2)cc1,-4%,.,-16,0,-0.7,
CC(=O)c1ccccc1NC(=O)COC(=O)c1ccc2c(c1)nc(C)n2-c1ccccc1,10%,-51,-3,-6,1.4,
CCOC(=O)c1cnn(-c2nc(SC)nc3sc4c(c23)CCC4)c1N,-3%,-17,10,-1,0.0,
COc1ccc(C2c3[nH]c4ccccc4c3C[C@H]3C(=O)N(c4ccccc4C(=O)NCCN4CCOCC4)C(=O)N23)cc1 (stereo partly specified),.,.,.,-3,0.1,
Cn1ncc2c(Nc3ccccc3Br)ncnc21,-2%,-29,-4,0,-0.3,
CCOC(=O)C1CCN(C(=O)Cn2c(=O)c3cccn3c3cccnc32)CC1,.,.,.,-1,-1.7,
CN(c1ncc(C(F)(F)F)cc1Cl)n1cc(C(=O)O)c2ccccc2c1=O,-3%,-21,8,-5,-0.8,
O=C1C=CCC(/C=C/c2ccccc2)O1 (stereo unspecified),-18%,-35,-19,8,6.0,
Cc1noc(C)c1CS(=O)(=O)Cc1ccc(Cl)cc1,-5%,.,5,-1,-0.4,
COC(=O)C1=C(C)N=C2SC(C#N)=C(N)N2C1c1ccc(OC)cc1 (stereo unspecified),1%,-26,0,-3,0.6,
COc1c(O)ccc2c1CN1CCc3cc4c(cc3C1C2)OCO4 (stereo unspecified),4%,.,.,-2,68*,
CN(C)S(=O)(=O)c1cccc(NC(=S)N(CCC#N)Cc2cccnc2)c1,-2%,.,21,-2,-0.6,
O=C(OCc1ccccc1)C1=NNC2C(=O)N(c3ccc(Br)cc3)C(=O)C12 (stereo unspecified),-30%,.,.,-14,-6.1,
CSc1nc(C)cc(SC(C(C)=O)C(=O)Nc2ccccc2)n1 (stereo unspecified),-9%,-34,-3,4,0.1,
Cc1nc(NCc2cccnc2)c2c3c(sc2n1)CC(C)CC3 (stereo unspecified),7%,.,-16,87,2.2,
CCC1(c2ccccc2)NC(=S)N(c2ccc(C)cc2)N1 (stereo unspecified),13%,.,-23,50,0.6,

# Further structures
SMILES,Mtb growth,YopH PTP inh,Arbovirus inh,Mtb bLac sens,RecA splice inh,others
NC(=O)C1(N2CCCCC2)CCN(CC(=O)Nc2ccccc2-c2ccccc2)CC1,-7%,-26,2,5,-0.1,
CC(C)OC(=O)c1cccc(C(=O)Oc2ccccc2)n1,3%,-2,8,-2,15,
CCc1cc2c(=O)n(Cc3ccco3)c(SCc3c(C)noc3C)nc2s1,-2%,-33,-5,-5,2.8,
NC(=O)C1CCN(C2=C(NS(=O)(=O)c3ccccc3)C(=O)c3ccccc3C2=O)CC1,-12%,.,.,0,-1.0,
COc1ccc(Br)cc1CN1CCSCC1,.,.,.,1,-3.2,
COc1ccc(CC(=O)N/N=C/c2cccs2)cc1OC,.,.,.,5,1.7,
CSCCC(NC(=O)COc1ccccc1)C(=O)OCc1ccc([N+](=O)[O-])cc1 (stereo unspecified),.,.,.,11,-2.7,
Cc1cc(NCCCOC(C)C)n2c(nc3ccccc32)c1C#N,.,.,.,3,-140,
Cc1cc(C)n2nc(C(=O)Nc3ccc4c(c3)CCC4)nc2n1,0%,.,-3,0,0.9,
COc1cc(C2NC(=O)NC(C)=C2C(=O)OC2CCCC(C)C2)ccc1O (stereo unspecified),-1%,-36,4,4,3.2,

# The closing 2 compounds of the section before lead into the next.
SMILES,Mtb growth,YopH PTP inh,Arbovirus inh,Mtb bLac sens,RecA splice inh,others
Cc1cc(C)n2nc(C(=O)Nc3ccc4c(c3)CCC4)nc2n1,0%,.,-3,0,0.9,
COc1cc(C2NC(=O)NC(C)=C2C(=O)OC2CCCC(C)C2)ccc1O (stereo unspecified),-1%,-36,4,4,3.2,
COc1ccc(OCC(=O)Nc2cccc(OC)c2)cc1,0%,-41,-7,20,-0.1,
CC(C)CC(=O)Nc1ccc(-c2nnn(CC(=O)NCc3ccco3)n2)cc1,8%,.,-9,0,-0.4,
CCN(CC)CCCSc1nc2ccccc2s1,4%,.,-4,40,-2.1,
COc1ccc(Cl)cc1NC(=O)CN(C)C(=O)c1ccc(N2CCCCC2)c([N+](=O)[O-])c1,.,.,.,-6,4.9,
O=C(Cc1ccc(F)cc1)NCc1cccnc1,-3%,.,-1,0,-1.3,
N/C(CS(=O)(=O)c1ccccn1)=N\OC(=O)c1ccccc1Cl,-9%,.,.,-7,4.1,
CCOc1ccc(NCC(=O)N/N=C/C=C/c2ccccc2)cc1,?,-3,-10,-6,0.6,
COc1ccc2c(c1)c1ncnc(N3CCN(Cc4ccc5c(c4)OCO5)CC3)c1n2C,?,-33,-8,.,.,
CSc1nnc(CNS(=O)(=O)c2ccc(F)cc2)n1C,.,.,.,1,-3.9,
O=c1[nH]c(Nc2ccccc2)cc2cc(Br)ccc12,0%,.,.,21,90*,

# A draw from above in order of formula weight, falling:
SMILES,Mtb growth,YopH PTP inh,Arbovirus inh,Mtb bLac sens,RecA splice inh,others
COc1ccc2c(c1)c1ncnc(N3CCN(Cc4ccc5c(c4)OCO5)CC3)c1n2C,?,-33,-8,.,.,
CC(C)CC(=O)Nc1ccc(-c2nnn(CC(=O)NCc3ccco3)n2)cc1,8%,.,-9,0,-0.4,
CCOc1ccc(NCC(=O)N/N=C/C=C/c2ccccc2)cc1,?,-3,-10,-6,0.6,
CSc1nnc(CNS(=O)(=O)c2ccc(F)cc2)n1C,.,.,.,1,-3.9,
O=c1[nH]c(Nc2ccccc2)cc2cc(Br)ccc12,0%,.,.,21,90*,
CCN(CC)CCCSc1nc2ccccc2s1,4%,.,-4,40,-2.1,
O=C(Cc1ccc(F)cc1)NCc1cccnc1,-3%,.,-1,0,-1.3,

# The listing continues:
SMILES,Mtb growth,YopH PTP inh,Arbovirus inh,Mtb bLac sens,RecA splice inh,others
O=c1ccc(-c2nc3cc(Cl)ccc3n2Cc2ccccc2)c[nH]1,-2%,.,16,4,3.7,
COC(=O)CNC(=O)C1Nc2ccc(OC(F)(F)F)cc2C2C=CCC12 (stereo unspecified),0%,.,.,75,-0.6,
Cc1cccc(OCC(=O)N2CCC(N3CCCCCC3)CC2)c1,-5%,-22,5,-6,-5.2,
COC(=O)[C@@]1(Cc2ccc(OC)cc2)[C@H]2c3cc(C(=O)N(C)C)n(CCSCCO)c3C[C@H]2CN1C(=O)c1ccccc1,-10%,-3,0,1,.,
CCOC(=O)c1c(NCc2ccccc2)n[nH]c1C,1%,-9,-5,-2,-0.4,
Cc1ccc(S(=O)(=O)N2CCN(c3ccccc3)CC2)cc1,.,.,.,1,1.6,
Cc1ccc(NC(=O)c2nc3nccc(C)n3n2)c(C)c1,-7%,.,-1,1,-0.4,
CN(CCCNC(=O)C1CCCN(S(=O)(=O)c2cnc[nH]2)C1)c1ccccc1 (stereo unspecified),-4%,-6,2,-3,-1.3,
Cn1cc(/C(Cc2ccccc2)=N\O)c2ccccc21,-7%,-31,-12,-5,6.0,
CCOC(=O)c1[nH]c(C)c(C(=O)c2ccc(C)cc2)c1C,6%,-4,-18,?,-1.3,
Cc1nc(CCNC(=O)Cc2ccc(F)cc2)cs1,2%,-32,5,1,-3.9,
CC(=O)N(C)c1ccc(NC(=O)Nc2cccc3ccccc23)cc1,.,.,.,-10,0.7,
Cc1ccc(CN2CCNC(=O)C2CC(=O)O)cc1 (stereo unspecified),1%,.,4,2,2.7,Arbovirus inh repeat=2
O=C(CCCN1C(=O)c2cccc3cccc(c23)C1=O)NCc1cccs1,4%,.,4,0,-2.5,
CC(=O)c1ccc(OCCCOc2cccc3cccnc23)cc1,.,.,.,-1,0.2,
Cc1cccc(NS(=O)(=O)c2coc(C(N)=O)c2)c1C,.,.,.,4,-0.8,
O=C(C[n+]1ccccc1)Nc1ccccc1C(F)(F)F,.,.,.,1,-0.9,
C=CCSc1nsc(NC(=O)Nc2cccc(C(C)=O)c2)n1,.,.,.,1,4.6,
Nc1ccc2nc(CCCCCCCCc3nc4ccc(N)cc4[nH]3)[nH]c2c1,3%,.,-3,4,5.1,
CCNc1cc(N2CCNCC2)ccc1[N+](=O)[O-],-6%,.,6,0,0.5,
COCCNc1ncnc2nc[nH]c12,-8%,-42,3,-2,-0.8,
NS(=O)(=O)c1cccc(NC(=O)/C=C/c2cccs2)c1,-3%,.,3,-8,18,
